# Source: PubChem BioAssay (National Center for Advancing Translational Sciences (NCATS))
# Cruzain inh Det: cruzain (T. cruzi) inhibition with detergent | purified cruzain, Z-FR-AMC fluorescence, 0.01% Triton | Potency, µM, for inactives: max response, negative = inhibition, usual class: inhibitors | P25779 | 200,000 tested, 0.43% active | AID 1478;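 note: plate controls were neutral wells for no effect and buffer without enzyme for full effect; nearly all actives have a fitted effect of over 40% in size; top concentration of the series not given in the record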
# Target sequence (P25779 123-467 limits assumed): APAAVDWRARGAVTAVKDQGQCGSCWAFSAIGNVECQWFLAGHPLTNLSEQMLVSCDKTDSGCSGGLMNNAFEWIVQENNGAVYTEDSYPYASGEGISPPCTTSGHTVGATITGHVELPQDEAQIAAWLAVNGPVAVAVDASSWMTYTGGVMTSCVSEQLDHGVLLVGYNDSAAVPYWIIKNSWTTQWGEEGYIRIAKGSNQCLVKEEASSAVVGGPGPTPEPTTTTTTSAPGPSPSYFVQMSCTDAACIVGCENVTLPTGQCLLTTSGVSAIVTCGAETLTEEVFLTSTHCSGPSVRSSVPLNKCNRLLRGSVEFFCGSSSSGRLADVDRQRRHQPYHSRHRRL
#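 Detergent-containing run (0.01% Triton X-100) in acetate buffer pH 5.5 with 5 mM DTT: enzyme at 1.5 nM final, 15 min compound preincubation at room temperature, then 2 uM Z-FR-AMC substrate. Activity taken as 60 s fluorescence increase at 360/450 nm.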
# StopGo reporter: lowers the luciferase signal of an FMDV 2A StopGo reporter | human cells with a luciferase reporter of 2A StopGo recoding; control for the full effect not named in the record | 410,000 tested, 1.2% active | AID 1159524 | Potency, µM (top dose mostly 57.9 µM), for inactives: top-dose signal change, negative = less light; active = well fitted falling curve with a large enough effect; inconclusive = small, poorly fitted or top-dose-only effect; inactive = no such curve, though single readings can be large or run the other way; tested in HEK293T cells; note: % is set by controls: 0 for no effect and ±100 for the full control effect; nearly all actives have a fitted effect of over 45% in size; luciferase light after 4 h
# Cruzain inh noDet: blocks cruzain activity in detergent-free assay; P25779; purified cruzain, Z-FR-AMC fluorescence, no detergent; Potency, µM, inactives show max response, negative = inhibition, hits mostly inhibitors; 200,000 tested, 2.3% active; AID 1476;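 note: plate controls were enzyme without inhibitor for no effect and buffer without enzyme for full effect; nearly all actives have a fitted effect of over 40% in size; top concentration of the series not given in the record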
#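 Purified cruzain at 1.5 nM, pre-incubated 15 min with compound at room temperature in 100 mM sodium acetate pH 5.5, 5 mM DTT, 0.00005% Triton X-100. Reaction started with 2 uM Z-FR-AMC; AMC fluorescence increase over 60 s gives rate.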
# LASV entry inh: inhibitors of Lassa virus binding or cell entry; Lassa virus pseudotype entry inhibition, cell reporter; control for the full effect not named in the record; 300,000 tested, 1.2% active; Potency, µM (doses to about 37.9 µM), for inactives: at the highest dose activity change, negative = inhibition, most hits filed as inhibitors; active means well fitted inhibition curve with a large enough effect; inconclusive means small, poorly fitted or top-dose-only effect, or effect the other way; inactive means flat fitted curve, though single readings scatter; tested in HEK293 cells; note: % is set by controls: 0 for no effect and ±100 for the full control effect; nearly all actives have a fitted effect of over 50% in size; luciferase read-out
# MARV entry inh: inhibitors of Marburg virus binding or cell entry. Marburg virus pseudotyped entry inhibition, cell reporter; control for the full effect not named in the record; about a third of the inactives were read at about 46 µM. Potency, µM (top dose mostly 37.8 µM), inactives show top-dose activity change, negative = inhibition, usual class: inhibitors. 300,000 tested, 1.8% active; active = well fitted inhibition curve with a large enough effect; inconclusive = small, poorly fitted or top-dose-only effect, or effect the other way; inactive = flat fitted curve, though single readings scatter; tested in HEK293 cells; about a fifth of its hits are not listed in these tables; note: % is set by controls: 0 for no effect and ±100 for the full control effect; luciferase read-out
# SARS PLpro yeast: SARS-CoV PLP inhibition in yeast | 330,000 tested, 0.19% active | Potency, µM (highest dose often 32.9 µM), for inactives: at the highest dose activity, positive = growth rescue | S. cerevisiae expressing SARS-CoV PLpro, growth rescue; control for the full effect not named in the record; active means well fitted rising curve with a large enough effect; inconclusive means small, poorly fitted or top-dose-only effect; inactive means no such curve, though single readings can be large or run the other way; note: 0% is about no effect; nearly all actives have a fitted effect of over 55% in size; growth read by luminescence after 48 h
# NS1 function inh: blocks influenza NS1 protein function; S. cerevisiae slowed by influenza A NS1, growth recovery by OD600; 270,000 tested, 0.4% active; AID 2326; Potency, µM (doses to about 46.1 µM), for inactives: at the top dose activity, positive = more growth; active means well fitted rising curve with a large enough effect; inconclusive means small, poorly fitted or top-dose-only effect; inactive means no such curve, though single readings can be large or run the other way; note: nearly all actives have a fitted effect of over 50% in size
#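 In this qHTS, NS1 from influenza A is expressed in budding yeast, where it slows growth. Cells are switched from glucose to 2% galactose medium (pH 6.0, -URA), treated with compound, and growth recovery is read at OD600.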
# RE007 growth inh: less growth of the S. pombe RE007 Vpr strain; S. pombe RE007 Vpr strain, BacTiter-Glo ATP luminescence, 24 h; control for the full effect not named in the record; Potency, µM (series often up to 92.2 µM), for inactives: at the top dose activity change, negative = less growth; 360,000 tested, 0.21% active; active = well fitted falling curve with a large enough effect; inconclusive = small, poorly fitted or top-dose-only effect; inactive = no such curve, though single readings can be large or run the other way;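 note: % is set by controls: 0 for no effect and ±100 for the full control effect; nearly all actives have a fitted effect of over 50% in size; the assay follows cell death caused by Vpr and the record does not say whether a fall means rescue or toxicity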
#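 Fission yeast strain RE007, carrying one chromosomally integrated HIV-1 vpr copy, was seeded at OD 0.01 in PMG+AL medium with 23 nL pinned compound. After 24 h at 30 °C and 99% humidity, viability was read by BacTiter-Glo luminescence.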
# Starred values were filed as active, the others as inactive; ? = inconclusive; / = not tested or not shown; & = joins results of further samples; [ ] = dose if it differs, or a comment. Unless noted, calls come from the whole dose curve; as a rule, active = well fitted curve in the direction sought with a large enough effect; inconclusive = small, poorly fitted or top-dose-only effect, or another doubt; inactive = no such curve, though single readings can be large; an effect the other way counts as inactive or inconclusive. Potency is the fitted concentration of half-maximal effect. The order is random, and some 4.8% of all compounds hit somewhere here.
SMILES,Cruzain inh Det,StopGo reporter,Cruzain inh noDet,LASV entry inh,MARV entry inh,SARS PLpro yeast,NS1 function inh,RE007 growth inh
O=C(O)c1ccc(NC(=O)C2(c3ccccc3)CCOCC2)cc1,3.6%,-26.7%,-10.7%,3.8%,-6.3%[46.1 µM],0.0%,3.7%,20.5%
COc1ccccc1NC(=S)NC12CN3CN(CN(C3)C1)C2,/,8.8%,/,-5.3%,?,0.5%,/,-4.1%
CCc1ccc(C(=O)C(C)OC(=O)CN2C(=O)NC3(CCCC3)C2=O)cc1 (stereo not drawn),/,-9.4%,/,12.0%,20.0%[46.1 µM],/,/,3.7%
CCN(CC)C(=O)CSC1=Nc2ccccc2C2=NC(c3ccccc3)C(=O)N12 (stereo not drawn),-5.1%,40.8%[activator],-3.6%,5.2%,?,-7.6%,2.82µM*,12.8%
O=C(Nc1ccc(S(=O)(=O)Nc2ccccc2)cc1)N1CCCC1,1.0%,-12.4%,5.1%,-4.4%[46.1 µM],/,/,/,/
CCn1c(C)nc2cc(C(=O)NNC(=S)Nc3ccccc3OC)ccc21,/,54.7%[activator],/,/,/,0.2%,-0.4%,5.7%
O=C(CCNC(=O)C1CCN(S(=O)(=O)c2ccc(F)cc2)CC1)NCc1ccc(F)cc1,/,13.0%,/,/,/,12.1%,9.8%,7.2%
CCOC(=O)c1sc(=S)n(-c2ccc3c(c2)OCO3)c1N,-7.2%,0.1%,-22.7%,-0.6%,?,-7.1%,-113.3%,-5.1%
CC(C)c1ccc(NC2CCCN(C(=O)CN3C(=O)CSC3=O)C2)cc1 (stereo not drawn),/,-23.2%,/,/,/,-4.6%,5.7%,4.5%
COC(=O)C[C@]1(C(=O)OC)CN(C#N)N(c2ccc(Cl)cc2)C12c1ccccc1-c1ccccc12,-4.0%,4.47µM*,-5.5%,3.16µM*,?,-20.5%,21.6%,18.2%
O=C(CNC(=O)c1ccco1)NCCCc1ccccc1,2.9%,15.8%,1.3%,11.6%,-7.1%,9.7%,-6.7%,-16.5%
CNC(=O)COC(=O)CNC(=O)c1cc(Cl)cc([N+](=O)[O-])c1,/,-9.6%,/,4.6%,18.4%[46.1 µM],1.4%,/,-2.3%
COc1ccc2nc(C(F)(F)C(F)(F)F)c(C#N)c(N)c2c1,-11.7%,-17.1%,-2.3%,-19.0%,-6.1%,7.5%,7.94µM*,11.8%
CCOc1ccc(NS(=O)(=O)c2ccc3[nH]cc(C(=O)NC(C)CC)c(=O)c3c2)cc1 (stereo not drawn),3.2%,-5.4%,8.1%,15.2%,-1.7%&8.3%,3.7%,-36.1%,2.4%
CC(=O)c1ccc(NC2OC(C)C(O)C(O)C2O)cc1 (stereo not drawn),-1.0%,-4.7%,-6.1%,16.7%,5.9%,0.1%,3.5%,9.8%
O=[N+]([O-])c1cccc(S(=O)(=O)/N=C(/Nc2ccccc2)c2ccccc2)c1,/,-12.1%,/,7.8%,?,0.6%,/,9.2%
CCOCCCNS(=O)(=O)c1ccc(NC(=O)Cc2c(F)cccc2Cl)cc1,/,7.9%,/,0.9%,17.0%[46.1 µM],1.1%,?,-3.0%
CC(CSc1n[nH]c(=S)s1)c1ccccc1 (stereo not drawn),/,-0.1%,/,-12.5%[46.1 µM],?,/,/,2.2%
CCN(CC)C(=O)Cn1nc(-c2ccncc2)nc1SCC(=O)Nc1ccc(OC)cc1,/,1.6%,/,-11.6%[46.1 µM],-16.2%[46.1 µM],0.9%,20.5%,-9.0%
Cc1nn(CC(O)COc2ccc3c(c2)CCC3)c(C)c1Br (stereo not drawn),-4.8%,2.6%,0.1%,?,0.4%,-14.4%,-6.1%,-11.7%
COCC(=O)N1CCC(Oc2ccc(C(=O)N3C[C@@H](C)O[C@@H](C)C3)cc2)CC1,/,20.4%,/,-5.2%,2.7%,-6.3%,13.6%,10.0%
Cc1c(C(=O)O)sc2nc(/C=C/c3ccccc3OC(F)F)[nH]c(=O)c12,/,8.0%,/,-8.5%,2.8%,2.1%,-13.5%,17.6%
COc1ccccc1CN1CC(C(=O)NCCc2ncccc2C)CCC1=O (stereo not drawn),/,-7.8%,/,/,/,-4.2%,-2.6%,-1.2%
COC(=O)c1ccc(Cl)cc1NC(=O)/C=C/c1ccc(C)o1,-6.1%,-5.1%,-9.2%,7.5%,-1.6%[46.1 µM],-4.6%,10.2%,8.6%
O=C1CC(N(Cc2cccs2)C(=O)Nc2ccccc2)C(=O)N1c1ccc(Cl)cc1 (stereo not drawn),-2.7%,28.6%,-7.4%,-20.4%,?,-10.2%,-4.6%,/
COC(=O)c1cc(NC(=O)Cn2c(=O)oc3ccccc32)cc(C(=O)OC)c1,/,8.4%,/,4.2%[46.1 µM],11.6%[46.1 µM],4.1%,3.4%,-14.2%
Cc1cc(CNC(=S)Nc2ccc(S(=O)(=O)Nc3ncccn3)cc2)nn1C,/,-8.4%,/,10.1%,-2.2%,-6.8%,-7.4%,3.0%
CCOc1ccc2nc(SCC(=O)c3ccc(Cl)s3)sc2c1,3.0%,37.4%[activator],-6.0%,11.7%,14.1%,1.8%,0.8%,-10.7%
Cn1nc(-c2ccccc2)c(C(O)c2ccccc2C(F)(F)F)c1Cl (stereo not drawn),0.3%,-4.3%,0.2%,-3.4%,29.6%,-6.4%,-0.6%,-2.0%
COc1ccc(C(=O)N2N=C(c3cccc(NS(C)(=O)=O)c3)CC2c2cccs2)cc1 (stereo not drawn),/,4.7%,/,?,2.2%[46.1 µM],-3.8%,0.7%,16.9%
C/C(=N\NC(=O)c1ccc(Cn2cc(Br)cn2)o1)c1ccc(NC(=O)c2ccoc2C)cc1,/,-6.7%,/,-24.7%,?,-16.9%,-15.5%,-8.5%
CC/C(=N/O)c1cnnc(SC)n1,1.6%,-12.0%,6.9%,-0.7%,?,7.4%,2.7%,3.1%
C=CCN1CC(=O)N2Cc3[nH]c4ccccc4c3C[C@H]2C1=O,/,-0.8%,/,/,/,-1.9%,2.9%,0.8%
CC(NS(=O)(=O)c1ccc(F)cc1)C(c1cccs1)N1CCOCC1 (stereo not drawn),0.7%,-3.7%,5.6%,-37.4%,-17.6%,-6.2%,-13.6%,-5.6%
CCCCCN(C(=O)CCC(=O)OC(C)C(=O)c1ccc(CC)cc1)c1c(N)n(CCCC)c(=O)[nH]c1=O (stereo not drawn),/,0.0%,/,-28.4%,19.8%,/,/,6.8%
O=C(/C=C/c1ccc(F)cc1)NCc1ccco1,-9.9%,35.4%[activator],-4.9%,?,-3.9%,-1.8%,-5.1%,14.1%
CCn1c(C(O)c2ccc(C)cc2)nc2ccccc21 (stereo not drawn),-1.3%,?,-3.7%,15.7%,12.0%[46.1 µM],-1.1%,-91.4%,-14.1%
COc1ccc(/C=N/NC(=O)C2CC2)c(OC)c1OC,/,14.3%,/,/,/,1.3%,10.0%,4.4%
O=c1[nH]c2c(oc3ccccc32)c(=O)n1Cc1ccccc1,/,-14.7%,/,-20.1%[46.1 µM],7.6%[46.1 µM],0.8%,5.8%,-1.1%
Cn1cc(S(=O)(=O)N2CCOCC2)cc1C(=O)NCc1ccc(Cl)cc1,/,-3.1%,/,/,/,0.6%,3.4%,-5.9%
O=C(CSc1nnc(Cn2cnc3ccccc32)o1)c1ccccc1,7.9%,?,0.2%,-15.9%,2.0%,-0.5%,3.3%,17.3%
Cc1ccc(Nc2nc(Nc3ccc(C)c(C)c3)nc(N3CCOCC3)n2)cc1C,-2.5%,-12.5%,-7.3%,?,?,/,/,/
COc1ccc([N+](=O)[O-])cc1NC(=O)CS(=O)(=O)c1ccc(C)cc1,/,-20.6%,/,/,/,-0.5%,4.7%,15.5%
COc1ccc(CC(=O)Oc2ccc(C(C)C)cc2)cc1S(=O)(=O)N1CCOCC1,/,-11.9%,/,7.8%,18.9%,-9.6%,/,2.2%
Cc1cccc(NC(=O)c2sc3nc4c(c(-c5ccco5)c3c2N)CCC4)c1,-6.1%,?,-8.1%,10.6%,-1.0%,-3.3%,0.2%,0.2%
CC(C)CC(=O)NC1(C(F)(F)F)NC(=O)N(c2ccccc2)C1=O (stereo not drawn),/,4.7%,/,-2.3%[46.1 µM],-5.0%[46.1 µM],0.1%,-1.9%,10.8%
C[C@@H]1CN(C(=O)c2ccc(OC3CCN(S(=O)(=O)N(C)C)CC3)cc2)C[C@H](C)O1,/,-8.5%,/,-1.5%,-4.8%,2.9%,-1.8%,-24.5%
O=c1c(-c2ccnn2-c2ccccc2F)cnc2n1CCS2,-8.5%,31.0%[activator],-8.5%,/,?,2.9%,-0.3%,4.8%
COCc1nnc(NC(=O)c2ccc(S(=O)(=O)N(C)c3ccccc3)cc2)o1,3.5%,-5.8%,11.3%,/,/,-2.8%,-56.7%,12.6%
Cc1ccc(CCNC(=O)C2CC(c3ccccc3C(F)(F)F)=NO2)cc1 (stereo not drawn),/,0.2%,/,/,/,-2.1%,5.9%,6.7%
COc1ccc([N+](=O)[O-])cc1NC(=O)Cn1ccc(C(F)(F)F)n1,/,-18.9%,/,-2.8%,?,3.0%,/,1.3%
COc1cccc(/C=C/C(=O)OCC(=O)Nc2ccc(S(=O)(=O)N3CCCC3)cc2)c1,-8.5%,0.1%,17.1%,5.0%,-6.8%,16.2%,?,5.9%

# Looked up one by one from the entries so far, 3 records:
SMILES,Cruzain inh Det,StopGo reporter,Cruzain inh noDet,LASV entry inh,MARV entry inh,SARS PLpro yeast,NS1 function inh,RE007 growth inh
O=c1c(-c2ccnn2-c2ccccc2F)cnc2n1CCS2,-8.5%,31.0%[activator],-8.5%,/,?,2.9%,-0.3%,4.8%
CC(C)CC(=O)NC1(C(F)(F)F)NC(=O)N(c2ccccc2)C1=O (stereo not drawn),/,4.7%,/,-2.3%[46.1 µM],-5.0%[46.1 µM],0.1%,-1.9%,10.8%
COc1ccc([N+](=O)[O-])cc1NC(=O)Cn1ccc(C(F)(F)F)n1,/,-18.9%,/,-2.8%,?,3.0%,/,1.3%
